Assay outcomes as filed in PubChem BioAssay.
CDC25B CDK2 inh – human CDC25B-CDK2/CyclinA binding inhibition. P30305+P24941. HTRF CDC25B-CDK2/CyclinA binding, anti-His/anti-Flag; stronger effect = higher value. z-score (concentration not given with the values). 94,000 compounds, 0.72% hits. AID 1259370;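 also: score is relative to mean and SD of negative controls; strong numbers were not always called active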
HIV TAR-Tat – HIV-1 TAR-Tat binding disruption. AID 1259389. 100,000 compounds, 0.6% hits. z-score (concentration not given with the values). HIV-1 TAR RNA, Tat peptide displacement FRET; stronger effect = higher value;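 also: score is relative to mean and SD of negative controls; some compounds called inactive have numbers as strong as hits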
Active calls of the source: *; x = no result given; & = joins results of further samples.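 The calls were made as follows: active = z-score from 3 up in half or more of its runs; inactive = the rest.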

SMILES | CDC25B CDK2 inh | HIV TAR-Tat
COc1cc(C2NC(=O)c3c(sc4c3CCN(C)C4)N2)cc(Br)c1OC (configuration not stated) | -0.36 | -5.4
O=C(NCc1ccc2c(c1)OCO2)c1ccc(N2CCSc3ncccc32)s1 | x | 0.42
NC(=O)CSc1nc2ccccc2s1 | -2.1 | 0.48
C=CCOc1ccc(C(Nc2ccccn2)c2ccc3cccnc3c2O)cc1 (configuration not stated) | 0.27 | x
CC(=O)c1c(C)cc(NC(C)(C)C)nc1NC(C)(C)C | -2.6 | x
O=C(CSc1nnc(N2CCOCC2)c2ccccc12)N1CCN(c2ccc(F)cc2)CC1 | 0.3 | 1.2
CCCC(NS(=O)(=O)c1cc(F)ccc1CN1C(=O)c2cccnc2C1=O)c1cccs1 (configuration not stated) | x | 2
COc1ccc(S(=O)(=O)N2CCN(S(=O)(=O)c3cc4c5c(c3)CCN5C(=O)CC4)CC2)cc1 | x | 1.4
Cc1cccc(/C=C/c2nn3c(-c4cccnc4)nnc3s2)c1 | -1.4 | -1.5
COC(=O)Cn1cnc2sc(C)c(C)c2c1=O | -2 | -0.32
c1ccc2oc(-c3nn4c(Cn5nnc6ccccc65)nnc4s3)cc2c1 | -2 | 0.72
CCNc1nc(NCCO)nc2c1cnn2C | x | 0.46
O=c1ccc2cc(S(=O)(=O)N(CCc3ccccc3)Cc3ccccc3)ccc2[nH]1 | x | 3.3
Cc1cc(-c2ccc(S(=O)(=O)NCCC3=CCCCC3)s2)n[nH]1 | x | 0.76
CCCc1n(CC(O)COc2ccccc2)c2ccccc2[n+]1C (configuration not stated) | -0.99 | 0
CC(C)CNC(=O)c1cc(-c2cccs2)nc2ccccc12 | -14 | x
Cc1ccc(NS(=O)(=O)c2ccc3c4c(cccc24)C(=O)N3)c(C)c1 | -1.8 | 0.01
CCc1nc(OCC(=O)OC)c2oc3ccccc3c2n1 | x | 1.7
Cc1ccn2c(=O)c(C(=O)NCc3ccco3)c(O)nc2c1 | -1.4 | 0.05
O=S(=O)(CCc1ccncc1)c1ccccc1 | -0.71 | x
COc1cccc(CN2C(=O)Nc3ccccc3S2(=O)=O)c1 | x | 0.46
CCN1CCN(S(=O)(=O)CCNS(=O)(=O)c2ccc3c(c2)OCCO3)CC1 | x | -0.1
CSc1ccccc1NC(=O)Cn1nc(C(F)(F)F)c2c1CCCC2 | 0.74 | 0.29
O=C(COc1ccc(Cl)cc1)Oc1ccc(-n2cnnn2)cc1 | -0.45 | -1.3
Cc1ccccc1N1C(=O)c2cc(S(N)(=O)=O)c(Cl)cc2NC1C (configuration not stated) | -2 | -0.22
FC(F)(F)c1cccnc1N1CCNC1=S | -1.3 | x
O=C(CN1C(=O)COc2ccc(S(=O)(=O)N3CCCCCC3)cc21)NCCN1CCCC1 | 0.32 | x
COC(=O)c1c(C)nn(-c2ccccc2)c1N | x | 0.03
CSc1cccc(NC(=O)c2noc3c2CSc2ccccc2-3)c1 | -1.1 | 0.89
Cc1ccc(S(=O)(=O)c2nc(S(C)(=O)=O)sc2NCCCN(C)C)cc1 | 0.13 | -0.12
Cn1cc(S(=O)(=O)N2CCCC2)cc1C(=O)NCc1ccco1 | x | 1.8
COc1ccc(-c2[nH]nc3c2C(c2ccncc2)C(C#N)=C(N)O3)cc1 (configuration not stated) | x | 1.3
Oc1ccc2ccccc2c1C1Nc2cccc3cccc(c23)N1 | -1 | 15*
COC(=O)CSc1nc2ccccc2[nH]1 | -1.5 | x
Cc1ccc2nc(NC(=O)CC3(CC4=NS(=O)(=O)c5ccccc5N4)CCCC3)sc2c1 | x | -1.6
Cc1ccc(-c2nc(SCC(=O)Nc3ccc(C)c(C)c3)n3[nH]c(=O)cc3n2)cc1 | x | 19*
N#CC1=C(N)OC2=C(C(=O)CC(c3ccccc3)C2)C1c1ccccc1Br (configuration not stated) | -6.1 | x
O=S(=O)(c1ccc(-c2cc(C(F)(F)F)on2)s1)N1CCOCC1 | x | 0.77
C=CCSc1nnc2c(n1)OC(/C=C/c1cccs1)N(C(C)=O)c1ccccc1-2 (configuration not stated) | 0.99 | -0.48
O=C(Nc1ccc(Br)cc1F)c1cc(-c2ccccn2)n[nH]1 | x | 2
O=C(NCCCN1CCCC1)C1CCN(c2nnc(N3CCCCC3=O)s2)CC1 | x | 2.1
O=C1CCc2cc(S(=O)(=O)Nc3cccc(F)c3)cc3c2N1CC3 | x | 2.3
Cn1ncc(NC(=O)Nc2cc(Cl)ccc2Cl)c1-n1cccc1 | -2.9 | x
Cc1cc(C)c(Cn2c(C)c(CNCc3ccc(C)o3)c(C(=O)O)c2C)c(C)c1 | 0.36 | 0.65
Cc1noc(C)c1C(=O)NCc1ccc2c(c1)OCO2 | -0.59 | x
COc1ccc(OC)c(N2CC(O)=C(c3nc4ccc(C)cc4[nH]3)C2=N)c1 | -4.9 | -0.56
CCCCCOC(=O)CSc1nnc(-c2ccccc2)c(=O)[nH]1 | 1.7 | 2.1
Cc1ccc(C(=O)Nc2cnc3ccc(C)cn3c2=O)cc1 | -0.63 | 0.06
Cc1nc(N2CCN(C)CC2)cc(N2CCN(C(=O)c3ccc(C(C)(C)C)cc3)CC2)n1 | -0.19 | 0.38
CCN(Cc1ccccc1)S(=O)(=O)c1ccc(N2C(=O)C(C)CS2(=O)=O)cc1 (configuration not stated) | -0.07 | -0.41

Whole records from above. Values in the order: CDC25B CDK2 inh, HIV TAR-Tat
Cn1ncc(NC(=O)Nc2cc(Cl)ccc2Cl)c1-n1cccc1 reads -2.9, x
O=C(NCCCN1CCCC1)C1CCN(c2nnc(N3CCCCC3=O)s2)CC1 reads x, 2.1
CCCCCOC(=O)CSc1nnc(-c2ccccc2)c(=O)[nH]1 reads 1.7, 2.1
Cc1nc(N2CCN(C)CC2)cc(N2CCN(C(=O)c3ccc(C(C)(C)C)cc3)CC2)n1 reads -0.19, 0.38
Cc1cc(C)c(Cn2c(C)c(CNCc3ccc(C)o3)c(C(=O)O)c2C)c(C)c1 reads 0.36, 0.65

Remaining list, next part
SMILES | CDC25B CDK2 inh | HIV TAR-Tat
CC(C)(C)OC(=O)NC1CCNCC1 | -1.9 | x
Clc1cccc(CNCc2noc3ccccc23)c1 | x | 1.2
O=C(CSc1nccn1-c1ccc(Cl)cc1)N1CCCc2ccccc21 | -1.4 | x
O=S(=O)(c1ccc(Br)cc1)N1CCC(N2CCOCC2)CC1 | x | 1.4
Nc1nc(NC(=O)c2ccco2)nn1-c1ccccc1 | 0.47 | x
Cc1ccc(-c2noc(-c3c(-c4ccccc4Cl)noc3C)n2)cc1 | x | 5.2
N#CC1=C2N=C(N)c3ccccc3N2C2=C(C(=O)CCC2)C1c1ccccc1Cl (configuration not stated) | -0.95 | -1.2
CCCOc1ccccc1C1C(C(=O)OC(C)C)=C(C)Nc2nnnn21 (configuration not stated) | -0.23 | -0.7
COc1ccc(NS(=O)(=O)c2cc3c(cc2Cl)NC(=O)CO3)cc1Cl | x | 1.1
COc1ccccc1-c1nnc2sc(-c3cccc(Cl)c3)nn12 | -1.6 | 1.8
CCN(CC)CC#CCC(O)(c1ccccc1)c1ccccc1 | -0.07 | -0.29
CCOC(=O)c1sc(NC(=O)c2cc(-c3ccc4c(c3)OCO4)on2)c(C(=O)OCC)c1C | -0.57 | x
O=C(c1cccs1)N1CCN(Cc2cc(=O)c3ccccc3[nH]2)CC1 | x | -0.47
O=C(NCc1ccccn1)C(=O)Nc1cccc(Br)c1 | -0.92 | 0.59
COc1ccc(C(=O)c2ccc(F)cc2)cc1 | -0.48 | x
CCc1ccc(CN(C(=O)c2cc(-c3ccc(C)c(F)c3)on2)C2CCS(=O)(=O)C2)cc1 (configuration not stated) | 0.07 | 0.7
Cc1cc(C)nc(N2C(=O)CC(C(=O)O)NC2=NCCc2c[nH]c3ccccc23)n1 (configuration not stated) | 0.85 | 1
CCOC(=O)C(C)Oc1cc(C)cc2oc(=O)cc(-c3ccccc3)c12 (configuration not stated) | -0.67 | x
Cn1c(NCCO)nc2c1c(=O)n(Cc1ccccc1Cl)c(=O)n2C | -0.87 | -0.46
COc1ccc(-c2cc(=O)c3c(OC)cc(OC)cc3o2)cc1 | x | 0.26

Part of the list above, with values under each structure.
Values in the order: CDC25B CDK2 inh | HIV TAR-Tat
COc1ccc(C(=O)c2ccc(F)cc2)cc1
  -0.48 | x
CC(=O)c1c(C)cc(NC(C)(C)C)nc1NC(C)(C)C
  -2.6 | x
Cn1cc(S(=O)(=O)N2CCCC2)cc1C(=O)NCc1ccco1
  x | 1.8
CCCC(NS(=O)(=O)c1cc(F)ccc1CN1C(=O)c2cccnc2C1=O)c1cccs1 (configuration not stated)
  x | 2
Cn1c(NCCO)nc2c1c(=O)n(Cc1ccccc1Cl)c(=O)n2C
  -0.87 | -0.46

(listing goes on)
SMILES | CDC25B CDK2 inh | HIV TAR-Tat
O=C(CSc1ccc(-c2cccs2)nn1)NCC1CCCO1 (configuration not stated) | x | 1.9
O=c1c(S(=O)(=O)c2ccccc2)c[nH]c2c(F)cccc12 | 0.52 | 1.5
CCOC(=O)C1CCCN(C(=O)Cn2nc(CC)n3c(cc4sccc43)c2=O)C1 (configuration not stated) | -1.3 | 2.9
Cc1ccc(-n2nnc(-c3nc(-c4ccc5c(c4)OCO5)no3)c2N)cc1C | x | -0.6
CN(Cc1cnc2nc(N)nc(N)c2n1)c1ccc(C(=O)N[C@@H](CCC(=O)O)C(=O)O)cc1 | -1.6 | -1.1&1.4
CCC1CCCCN1C(=O)c1ccc([N+](=O)[O-])o1 (configuration not stated) | -0.11 | -0.53
Cc1nc(C(F)(F)F)ccc1C(=O)Nc1cccnc1N1CCOCC1 | -2.6 | x
O=c1[nH]cnc2scc(-c3ccccc3)c12 | -0.39 | x
Cc1ccc(C(=O)OC2=C(C(=O)c3ccccc3)N(CCN(C)C)S(=O)(=O)c3ccccc32)cc1 | -0.24 | 1.1
CC(C)(CO)NC(=S)Nc1ccc(F)cc1F | -0.67 | x
O=C(NCc1ccc2c(c1)CCO2)c1ccc2nsnc2c1 | 0.65 | x
N#Cc1cc2nc(O)c(O)nc2cc1[N+](=O)[O-] | -0.87 | x
Cc1[nH]ncc1CNC(=O)c1[nH]nc2c1COc1ccccc1-2 | x | 0.93
O=[N+]([O-])c1ccc(SCc2c(F)cccc2Cl)cc1 | 0.04 | x
Cc1cc(F)ccc1NC(=O)C1=Cc2sc(C)c(C)c2CS1 | x | -3.4
CC(=O)N1CCOc2cc(S(=O)(=O)NC3CCCCC3)c(Cl)cc21 | x | 0.16
O=C(NCc1cccnc1)c1ccccc1NC(=O)c1c(F)cccc1F | -0.3 | x
Cc1cc(C)c2c(=O)cc(C(=O)N(Cc3ccc(F)cc3)C3CCS(=O)(=O)C3)oc2c1 (configuration not stated) | -2 | -2
CSc1c(CC(=O)O)n(Cc2ccccc2)c2ccccc12 | -0.27 | 1.6
Cc1ncc(-c2ccc(S(=O)(=O)Nc3ccc(F)cc3C)cc2)o1 | x | 1.2
CC1CCCC(NC(=O)CCNS(=O)(=O)c2ccc3c(c2)oc(=O)n3C)C1C (configuration not stated) | 0.46 | x
CCN(c1ccc(OC)cc1)S(=O)(=O)c1ccc(CN2C(=O)c3cccnc3C2=O)s1 | x | 0.34
CCC(C)OC(=O)C(C)Oc1ccc2c(=O)c(Oc3cccc(C)c3)coc2c1 (configuration not stated) | -0.57 | 0.65
Cc1ccc2nc(Nc3ccc(F)cc3C)c3nncn3c2c1 | -1.3 | 0.83
O=C(Cn1cnc2c(oc3ccccc32)c1=O)Nc1cccc(Br)c1 | x | 1.5
C=C(C)Cn1c(NCCC)nc2c1c(=O)n(C)c(=O)n2C | 0.84 | 0.5
CCCCC(=O)OCc1cc(=O)n2nc(CC(C)C)sc2n1 | x | 11
CC(C)c1ccc(C2C(C(=O)c3cccs3)=C(O)C(=O)N2CCN(C)C)cc1 (configuration not stated) | -1.8 | -1.8
C#CCOC(=O)NC(=O)c1ccc(C(F)(F)F)cc1 | -0.85 | x
Cc1nn(CC(N)=O)c(C)c1[N+](=O)[O-] | -1.2 | 0.86
Cc1ccc2nc(SCC(O)c3ccccc3)[nH]c2c1 (configuration not stated) | -1.1 | -2.1
Cc1n[nH]c(=S)n1/N=C\c1ccco1 | -1.1 | x
CC1=C(c2ccc(C)c(C)c2)S(=O)(=O)NC1=NCCCOC(C)C | 0.62 | 0.56
CSc1nn(Cc2ccc(C)cc2)c(N)c1S(=O)(=O)c1ccccc1 | -0.34 | 2.8
O=C(NCCC1=CCCCC1)c1cc2c(s1)-c1ccccc1OC2 | -0.85 | -0.28
CN(CCNC(=O)c1cc2c(s1)CS(=O)(=O)C2)C1CCCCC1 | -3.2 | -1.1
Cc1ccsc1C(N)=S | 0.43 | x
O=S(=O)(NCCc1csc2nc(-c3ccc(F)cc3)nn12)c1cccc(Cl)c1 | x | 2.3
O=C(CCSc1nnc(NC(=O)Cn2c(=O)sc3ccccc32)s1)Nc1ccccc1 | -4.5 | -0.68
O=C(NC1CC1)c1nnc(Cc2c(F)cccc2Cl)o1 | -1.7 | 0.17
CN(C(=O)c1cnn2c(C(F)F)cc(-c3ccccc3)nc12)C1CCCCC1 | 0.46 | -1.1
CCOC(=O)C1CCN(S(=O)(=O)c2ccc3c(c2)CC(=O)N3)CC1 | x | 1.5
O=C(Nc1ccc(S(=O)(=O)NC2CC2)cc1)N1CCCC1 | x | 0.58
Cc1ccc(S(=O)(=O)c2ccc(Cl)cc2)cc1S(=O)(=O)N1CCN(C)CC1 | -0.34 | -2.4
C=CCSc1nc2c(c(=O)[nH]1)C(C(C)C)C(C#N)=C(N)O2 (configuration not stated) | -0.46 | x
CCN(CC)CCNc1ncnc2c1cnn2-c1ccc(C)c(Cl)c1 | x | 1.9
Cc1ccc(Nc2c(-c3ccc4c(c3)CCCC4)c(=O)c2=O)cc1Cl | x | 1.8
O=C(c1noc2c1CCCC2)N1CCN(c2ccccn2)CC1 | x | 1
CCCN(Cc1cccs1)C(=O)Nc1ccc(Br)c(C)c1 | 1.2 | 3.3
CCCn1c2c(c(O)c(C(=O)Nc3nc(C45CC6CC(CC(C6)C4)C5)cs3)c1=O)CCCC2 | -2.2 | x
CCCc1nc(C)cc(N2CCCC2)n1 | -2.2 | 1.2
